# High-throughput results (PubChem BioAssay)
# AID923 = qHTS Assay for Allosteric/Competitive Inhibitors of Caspase-1: Spectroscopic Profiling in AFC Spectral Region; Potency, µM (doses to about 57.5 µM), for inactives: at the top dose fluorescence increase, usual class: activators; compound fluorescence, AFC spectral region (405/520 nm); almost no hit is shown here; 75,000 tested, 1.1% active; active = well fitted activation curve with a large enough effect; inconclusive = small, poorly fitted or top-dose-only effect;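 note: potency is the fitted concentration of half-maximal effect; 0% is about no effect; scaled to a free AFC standard on each plate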
#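 Baseline compound fluorescence (AFC region, 405 nm ex/520 nm em) taken from the intercept of kinetic reads with 50 nM caspase-1 and 5 uM Ac-WEHD-AFC; normalized to an on-plate AFC standard curve; compounds titrated up to 57 uM.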
# A647 fluor = compound fluoresces in the A647 spectral region. Compound fluorescence, A647 channel (570/671 nm), Tris buffer. max dye-equivalent concentration, M. 59,000 tested, under 10 active; active means above 1 µM dye equivalent; inconclusive means 0.1 to 1 µM; inactive means 0.1 µM or less;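 note: values scaled relative to a standard on each plate; highest value over a series up to 38 µM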
#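 Spectral profiling of library compounds in pH 8.0 Tris: 15 min room-temperature incubation, single ex/em pair (570/671 nm), response normalized to Alexa 647 equivalents.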
# TSHR ag = TSH receptor (human) agonism; P16473; 73,000 tested, 0.48% active; HEK293-CNG-TSHR cells (CNG channel as cAMP sensor), membrane potential dye, cAMP; Potency, µM (series often up to 57.1 µM), without a hit: top-dose activation, hits mostly activators; active = well fitted activation curve of enough size with the parental cells flat; inconclusive = any curve in the parental cells; inactive = parental cells flat and receptor cells flat or falling; note: potency is the fitted concentration of half-maximal effect; % of control where 0% means no effect; weak receptor curves with flat parental cells got no call and are not listed
# Target sequence (P16473 whole entry, looked up): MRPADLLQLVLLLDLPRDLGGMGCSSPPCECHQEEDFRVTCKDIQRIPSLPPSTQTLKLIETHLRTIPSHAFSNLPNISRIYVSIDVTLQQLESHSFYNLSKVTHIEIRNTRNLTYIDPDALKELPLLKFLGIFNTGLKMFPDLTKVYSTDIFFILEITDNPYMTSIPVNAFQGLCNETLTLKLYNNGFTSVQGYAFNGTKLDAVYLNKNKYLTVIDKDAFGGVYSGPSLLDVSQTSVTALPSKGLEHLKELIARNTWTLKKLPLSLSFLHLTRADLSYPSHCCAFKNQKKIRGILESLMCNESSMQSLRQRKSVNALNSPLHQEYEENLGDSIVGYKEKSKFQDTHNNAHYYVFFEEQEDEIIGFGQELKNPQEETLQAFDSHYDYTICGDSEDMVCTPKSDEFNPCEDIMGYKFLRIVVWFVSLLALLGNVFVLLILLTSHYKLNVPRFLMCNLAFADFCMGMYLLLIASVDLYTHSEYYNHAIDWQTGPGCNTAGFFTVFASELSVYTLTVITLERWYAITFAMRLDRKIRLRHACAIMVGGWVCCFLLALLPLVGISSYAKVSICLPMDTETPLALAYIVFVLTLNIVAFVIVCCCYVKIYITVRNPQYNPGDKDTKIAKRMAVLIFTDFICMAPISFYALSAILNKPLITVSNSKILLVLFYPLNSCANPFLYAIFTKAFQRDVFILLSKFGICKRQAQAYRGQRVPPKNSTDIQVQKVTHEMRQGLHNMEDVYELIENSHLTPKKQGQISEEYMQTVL
#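 HEK 293 cells stably expressing TSHR and a cAMP-gated CNG channel; parental CNG-only cells as counterscreen. Cells preloaded 60 min with membrane potential dye plus 100 uM RO 20-1724, then compound 30 min; fluorescence read at 590 nm.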
# Resorufin fluor = compounds fluorescent in resorufin spectral region; Compound fluorescence, resorufin region 547/598 nm, buffer; active compounds read high; max dye-equivalent concentration, M; 59,000 tested, 0.04% active; active = above 10 nM dye equivalent; inconclusive = 1 to 10 nM; inactive = 1 nM or less; a few of its hits are not listed in these tables; note: highest value over a series up to 38 µM
#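 Dye-equivalent concentration values derive from comparing each well's 547/598 nm fluorescence against resorufin standards included on every plate. Incubation was 15 min at room temperature in 100 mM Tris, pH 8.0.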
# A488 autofl = compound autofluorescence in A488 spectral region | compound autofluorescence, A488 spectral region, dye equivalency; active compounds read high | 59,000 tested, 0.1% active | max dye equivalency, M; active = above 10 nM dye equivalent; inconclusive = 1 to 10 nM; inactive = 1 nM or less; about half of its hits are not listed in these tables;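 note: highest value over a series up to 38 µM; compound alone in buffer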
#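 Spectroscopic profiling in the A488 region: compounds in pH 8.0 Tris (100 mM), 15 min RT, CCD imaging with 480 nm excitation and 540 nm emission; responses normalized against A488 dye standards.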
# Numbers without * were called inactive; i = inactive; ? = inconclusive; . = no result given; & = joins results of further samples; [ ] = dose if it differs, or a comment. These rows are one share of the data, so the mix of outcomes need not match the whole.
SMILES,A488 autofl,AID923,Resorufin fluor,A647 fluor,TSHR ag
Nc1c(C(=O)NC2CCCCC2)c2nc3ccccc3nc2n1/N=C/c1ccco1,i,3.1%,i,1.96e-08,5.7%
CC1(C)CC(=O)C2(CC3=C(CC(C)(C)CC3=O)O2)C(=O)C1,.,0.6%,.,.,-3.6%
CCOC(=O)N1CCN(CC(=O)Nc2cc(OCC)ccc2OCC)CC1,i,-2.7%,i,3.39e-08,?
CC(C(=O)N1CCOCC1)(c1ccccc1)c1ccccc1,i,-2.0%,i,1e-09,8.6%
CCCCOC(=O)Nc1nnc(-c2ccccc2OC)s1,i,-0.5%,i,1e-09,2.4%
c1ccc(Cc2nnc3sc(-c4ccco4)nn23)cc1,.,0.3%,.,.,4.1%
Cc1ccc(S(=O)(=O)Oc2cc(S(=O)(=O)O)cc3cc(S(=O)(=O)O)cc(N)c23)cc1,i,-1.4%[11.5 µM],i,2.73e-08,3.3%[11.4 µM]
N#CCSc1nc(-c2ccccc2)cs1,i,-1.0%,i,2.98e-08,6.0%
CCOc1ccc(C2C(C(=O)NC)=C(C)Nc3nc4ccccc4n32)cc1OC (centres undefined),.,-0.7%,.,.,9.9%
Cc1noc(C)c1C(=O)NCCCN1CCCC1=O,i,0.5%,i,2.8e-09,-5.4%
CCN(Cc1cc2cc(OC)ccc2[nH]c1=O)C(=O)c1ccncc1,i,-1.7%,i,9.4e-09,-2.7%
COc1ccccc1N1CCN(CCCNC(=O)Nc2ccccc2C)CC1,i,0.3%,i,4.38e-08,7.7%[11.4 µM]
O=C(NCc1ccncc1)C(F)(F)C(F)(F)C(=O)NCc1ccncc1,.,-1.1%,.,.,-0.6%[11.4 µM]
CCc1nnc(NC(=O)C2CCCN(c3nc4ccccc4s3)C2)s1 (centres undefined),i,1.5%,i,3.82e-08,-0.7%[11.4 µM]
O=C(c1cccc(F)c1)N1CCCC(C(=O)N2CCCC2)C1 (centres undefined),i,0.3%,i,1.5e-09,0.0%
COc1ccc(C(=O)Nn2c(SCC(=O)NCc3ccco3)nc3ccccc3c2=O)cc1,i,3.5%,i,2.22e-08,?
O=C(Nc1cccc(Cl)c1)N(Cc1nc2ccccc2c(=O)[nH]1)C1CCCC1,i,4.5%,i,1e-09,27.7%
COc1ccc(-c2nn(-c3ccccc3)cc2C(=O)O)cc1,.,-1.8%,.,.,1.4%
O=C(NCS(=O)(=O)c1ccccc1)c1ccccc1,.,-1.1%,.,.,-3.6%
CC(=O)C1C(=O)C=C(c2ccco2)CC1c1ccccc1 (centres undefined),i,6.3%,i,1e-09,?

# Structures shown so far containing a halogen (3):
SMILES,A488 autofl,AID923,Resorufin fluor,A647 fluor,TSHR ag
O=C(NCc1ccncc1)C(F)(F)C(F)(F)C(=O)NCc1ccncc1,.,-1.1%,.,.,-0.6%[11.4 µM]
O=C(c1cccc(F)c1)N1CCCC(C(=O)N2CCCC2)C1 (centres undefined),i,0.3%,i,1.5e-09,0.0%
O=C(Nc1cccc(Cl)c1)N(Cc1nc2ccccc2c(=O)[nH]1)C1CCCC1,i,4.5%,i,1e-09,27.7%

# (list continues)
SMILES,A488 autofl,AID923,Resorufin fluor,A647 fluor,TSHR ag
O=C(O)c1cccnc1SCC(=O)N1CCCCCC1,i,-1.3%,i,7.1e-09,1.9%
CO[C@H]1COC(=O)[C@H](C)NC(=O)C/C=C\[C@@H](C)[C@H](OC)COC(=O)[C@@H](OCc2ccccc2)/C=C\[C@@H]1C,.,0.0%[11.5 µM],.,.,-5.5%[11.4 µM]
CCSc1nc(N)c2c3c(sc2n1)CCC3,i,.,i,1e-09,.
COc1ccc2cc1Oc1ccc(cc1)C[C@@H]1c3c(cc(OC)c4c3Oc3cc5c(cc3O4)CCN[C@H]5C2)CCN1C,i,0.7%[11.5 µM],i,5.7e-09,-29.1%[11.4 µM]
CN(C)c1nc(OCCOC(=O)c2ccccc2)nc(N(C)C)n1,i,-1.2%,i,1e-09,19.6%
CC(Nc1ncnc2nc[nH]c12)c1ccccc1 (centres undefined),.,0.9%,.,.,-7.0%
Cc1ccc(C2c3c(-c4ccccc4O)n[nH]c3C(=O)N2Cc2ccncc2)cc1 (centres undefined),i,-1.6%,i,1.22e-08,19.1%
O=C(CSC1=NS(=O)(=O)c2ccccc21)Nc1ccccc1,.,-0.4%,.,.,-28.1%
CCn1c(SCC(=O)NCc2ccco2)nc2cccnc21,i,-2.0%,i,2.12e-08,-3.0%
O=C(c1cccc(F)c1)N1CCc2ccccc2C1,i,-0.1%,i,1e-09,4.7%
C=CCNC(=O)c1cnc2n(c1=O)CCS2,.,1.4%,.,.,3.6%
O=c1[nH]c2c(s1)C(c1ccccc1)C1C3CCC(C3)C1S2 (centres undefined),i,3.0%,i,1e-09,13.5%
CCN(CCCNC(=O)C1CCC(=O)N1Cc1ccc(C)cc1)c1cccc(C)c1 (centres undefined),i,-4.1%,i,5.8e-09,-3.9%
COC(=O)c1ccccc1NC(=O)CN(C)S(=O)(=O)c1ccc(OC)cc1,i,-0.1%,i,1e-09,15.3%
CCCC(=O)Nc1cccc2c1CCCC2,i,-2.3%,i,7.3e-09,3.1%
CCCCN(C(=O)NC(=O)Nc1cccc(C)c1C)S(C)(=O)=O,i,0.0%,i,1.3e-09,7.1%
CCOC(=O)N1CCC(N2C(=O)c3ccccc3C2Nc2ccc3c(c2)OCCO3)CC1 (centres undefined),.,-2.5%,.,.,11.7%
Cc1onc(-c2ccccc2Cl)c1C(=O)N1CCCCC1C(=O)O (centres undefined),.,1.5%,.,.,?
Cc1ccc2c(C(=O)CN3CCSCC3)c(C)[nH]c2c1,i,0.6%,i,3.51e-08,7.9%
CCN1CCN(C(=O)c2cc3sccc3n2CC(=O)c2ccccc2)CC1,i,-0.4%,i,1e-09,?
Cc1ccc(-c2ccc(=O)n(CC(=O)NCCCN3CCCCC3)n2)cc1,i,-0.9%,i,2.48e-08,1.5%
COc1ncc2nc(-c3cc(F)cc(F)c3)c(=O)n(C3CC3)c2n1,i,13.7%,i,2.95e-08,?
O=C1CCCN1c1ccc(S(=O)(=O)Nc2ccc3c(c2)OCCO3)cc1,i,-1.3%,i,6.4e-09,11.5%
CCC1Oc2ccccc2N(CC(=O)Nc2ccccc2OC)C1=O (centres undefined),i,-1.6%,i,1e-09,24.1%
COc1ccc(F)cc1S(=O)(=O)NC1CC(C)(C)NC(C)(C)C1,i,-1.4%,i,5.6e-09,9.3%
O=C(COC(=O)c1ccco1)NCc1ccco1,i,1.4%,i,3.4e-09,?
CCCn1c(=O)c(C(=O)Nc2nnc(C)s2)c(O)c2ccccc21,i,-0.9%,i,1e-09,7.8%
O=C(NCC1(c2ccccc2)CCOCC1)c1ccc(Br)o1,.,-5.0%,.,.,15.0%
C1CCC(N=C(NC23CC4CC(CC(C4)C2)C3)N2CCOCC2)CC1,i,-1.4%&1.2%,i,1.22e-08,?
Cc1c(C(=O)Nc2ccncc2)sc2nc(-c3ccc(F)cc3)cn12,.,-2.6%,.,.,15.8%
Cc1c2c(nc3nc4ccccc4n13)CC(C)(C)CC2=O,i,1.5%,i,3.26e-08,16.6%
COC(=O)CNc1c(-c2ccccn2)nc2ccc(Br)cn12,i,8.2%,i,2.5e-08,0.1%[11.4 µM]
Cc1cc(C(=O)CN2C(=O)C3CC=CCC3C2=O)c(C)n1-c1ccccc1 (centres undefined),i,0.5%,i,3e-09,26.3%
CC(Sc1nnc(COc2ccc3ccccc3c2)n1C)C(=O)O (centres undefined),i,1.4%,i,1e-09,-0.7%
CCOc1ccc(NS(=O)(=O)N(C)C)cc1,i,-2.1%,i,2.5e-09,9.9%
COCCNC(=O)CCc1nc(-c2ccccc2)no1,i,-1.1%,i,1e-09,2.2%
O=C1CC2(CCCC2)CC(=O)N1CCNC[C@H]1COc2ccccc2O1,.,-0.5%,.,.,21.1%
NC1=NC(S)C2N=CN=C2N1 (centres undefined),.,-2.3%,.,.,3.1%
COc1ccc(NC(=O)Cn2nnc(C(=O)NCc3cccc(OC)c3)c2N)cc1,i,1.8%,i,1e-09,-0.8%
Cc1cc(NC(=O)CSc2cn(CCNC(=O)c3ccc(Cl)cc3)c3ccccc23)no1,.,-0.4%,.,.,?
Oc1c(CN2CCCCC2)cc(Br)c2cccnc12,i,0.7%,i,3.8e-09,6.1%
Cc1cc(SCC(=O)NC(=O)NCc2ccco2)nc2ccccc12,i,0.9%,i,1.69e-08,?
CCOc1ccc(C2CC(=O)c3c([nH]c(C(=O)OC)c3C)C2)cc1OC (centres undefined),i,-0.2%,i,4.07e-08,3.1%[11.4 µM]
c1ccc2c(c1)[nH]c1c(N3CCN(C4CCCCC4)CC3)ncnc12,i,.,i,2.71e-08,.
Cc1cc(C(F)F)n2ncc(C(=O)NC3CCCCCC3)c2n1,i,0.0%,i,7.2e-09,25.1%
CN1CCN(c2ncc3nc(-c4ccc(Cl)cc4)c(=O)n(-c4ccccc4)c3n2)CC1,i,10µM*,i,1.2e-09,-14.5%
Cc1occc1-c1nnc(SCC(=O)N2CCOCC2)o1,i,-0.1%,i,1.29e-08,3.8%
O=c1c(-c2ccc(O)cc2)coc2cc(O)cc(O)c12,i,0.9%&1.8%,i,1.1e-09&5.29e-08,?
COc1cccc(C2CC(c3ccc(C(C)C)cc3)n3nc(N)nc3N2)c1 (centres undefined),.,-1.3%,.,.,2.9%
CC(O)(P(=O)(O)O)P(=O)(O)O,i,-0.2%[25.7 µM],i,1e-09,3.9%[25.6 µM]
C#CC1CN(Cc2ccccc2)CC(C#C)N1C (centres undefined),i,.,i,4.76e-08,.
NC(=O)c1oc2ccccc2c1NC(=O)CCc1ccccc1,.,-2.3%,.,.,29.0%
O=C(Oc1ccc(N2C(=O)CCC2=O)cc1)c1ccco1,i,3.5%,i,5.9e-09,1.1%
CC(C)C1C(C#N)=C(N)SC(N)=C1C#N,.,0.4%,.,.,6.8%[11.4 µM]
CCCCNC(=O)c1nn(-c2ccccc2OC)c(=O)c2ccccc12,i,-1.2%,i,3.4e-09,0.7%[11.4 µM]
Cc1ccc(-c2nnc(SCC(=O)N3c4ccccc4NC(=O)C3(C)C)n2N)cc1,i,0.7%,i,1.3e-09,0.3%
C#CCN1C(=O)C(O)(CC(=O)c2cc(OC)ccc2OC)c2ccccc21 (centres undefined),i,-0.6%,i,4.43e-08,3.7%
N=c1c2c(n(Cc3ccccc3)c3c1CCC3)CCC2,i,-0.9%,i,4.51e-08,?
Cc1cc(NC(=O)CS(=O)(=O)c2cn(Cc3ccccc3Cl)c3ccccc23)no1,i,2.1%,i,1e-09,?
CC(=O)NCCc1ccc(S(=O)(=O)NCc2ccc3c(c2)OCO3)cc1,.,1.7%,.,.,-1.2%

# Next part:
SMILES,A488 autofl,AID923,Resorufin fluor,A647 fluor,TSHR ag
CCOC(=O)c1c(CN(C)C)oc2cc(CN(C)C)c(O)c(CSc3ccccc3)c12,i,1.3%,i,1e-09,8.5%
COc1ccc(Br)cc1CNCCSc1nnnn1C,i,-2.4%,i,1e-09,?
CCN(CC)CCCNC(=O)CC1Sc2ccccc2NC1=O (centres undefined),i,0.3%,i,5.6e-09,-2.1%
COc1ccc(OCC(=O)N2CCOCC2)cc1,.,-0.5%,.,.,-6.6%
Cc1cc(OCC(O)CN(CCO)CCO)ccc1Cl (centres undefined),i,0.6%,i,1.37e-08,-3.5%[11.4 µM]
CCCC(=O)Nc1ccc2oc(-c3ccncc3)nc2c1,i,1.5%,i,1.69e-08,4.4%
CC(=O)CC(C)=NCCN=C(C)CC(C)=O,i,2.8%,i,7.6e-09,-0.9%[11.4 µM]
